High-throughput results (PubChem)
Calb FLC: C. albicans growth inhibition with fluconazole, primary screen, CaCi-2 strain, Alamar Blue fluorescence | C. albicans CaCi-2 (fluconazole-resistant clinical isolate) + fluconazole, 48 h | growth inhibition, % (no concentration beside the values) | 0.57% of 300,000 active | AID 1979, 2009;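 active means most replicates above 75%; inconclusive means exactly half above 75%; inactive means most below 75%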;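 further: all wells also contain fluconazole at 8 µg/ml as a sub-toxic cotreatment; 0% = median of DMSO wells and 100% = median of geldanamycin control wells; wells of about 8 µL received 7.5 nL stock; the first replicate is given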
LANA-H2B inh: blockers of LANA interaction with H2A/H2B – biochemical, FP readout, HTS, primary screen. cell-free LANA-H2A/H2B peptide, fluorescence polarization. Protein LANA1 (Human herpesvirus 8 type P (isolate GK18)), Q9QR71. inhibition, % (test concentration not listed). 0.6% of 320,000 active; in the data active means inhibition mostly above about 10%, no sharp cut-off; inactive means mostly below about 6.7%;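 further: stock transfer was 7.5 nL into about 10 µL; 0% = median of vehicle wells and 100% = median of positive control wells; one replicate is shown; the record names a cut of 25% in any replicate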
Target sequence (Q9QR71 whole entry, looked up): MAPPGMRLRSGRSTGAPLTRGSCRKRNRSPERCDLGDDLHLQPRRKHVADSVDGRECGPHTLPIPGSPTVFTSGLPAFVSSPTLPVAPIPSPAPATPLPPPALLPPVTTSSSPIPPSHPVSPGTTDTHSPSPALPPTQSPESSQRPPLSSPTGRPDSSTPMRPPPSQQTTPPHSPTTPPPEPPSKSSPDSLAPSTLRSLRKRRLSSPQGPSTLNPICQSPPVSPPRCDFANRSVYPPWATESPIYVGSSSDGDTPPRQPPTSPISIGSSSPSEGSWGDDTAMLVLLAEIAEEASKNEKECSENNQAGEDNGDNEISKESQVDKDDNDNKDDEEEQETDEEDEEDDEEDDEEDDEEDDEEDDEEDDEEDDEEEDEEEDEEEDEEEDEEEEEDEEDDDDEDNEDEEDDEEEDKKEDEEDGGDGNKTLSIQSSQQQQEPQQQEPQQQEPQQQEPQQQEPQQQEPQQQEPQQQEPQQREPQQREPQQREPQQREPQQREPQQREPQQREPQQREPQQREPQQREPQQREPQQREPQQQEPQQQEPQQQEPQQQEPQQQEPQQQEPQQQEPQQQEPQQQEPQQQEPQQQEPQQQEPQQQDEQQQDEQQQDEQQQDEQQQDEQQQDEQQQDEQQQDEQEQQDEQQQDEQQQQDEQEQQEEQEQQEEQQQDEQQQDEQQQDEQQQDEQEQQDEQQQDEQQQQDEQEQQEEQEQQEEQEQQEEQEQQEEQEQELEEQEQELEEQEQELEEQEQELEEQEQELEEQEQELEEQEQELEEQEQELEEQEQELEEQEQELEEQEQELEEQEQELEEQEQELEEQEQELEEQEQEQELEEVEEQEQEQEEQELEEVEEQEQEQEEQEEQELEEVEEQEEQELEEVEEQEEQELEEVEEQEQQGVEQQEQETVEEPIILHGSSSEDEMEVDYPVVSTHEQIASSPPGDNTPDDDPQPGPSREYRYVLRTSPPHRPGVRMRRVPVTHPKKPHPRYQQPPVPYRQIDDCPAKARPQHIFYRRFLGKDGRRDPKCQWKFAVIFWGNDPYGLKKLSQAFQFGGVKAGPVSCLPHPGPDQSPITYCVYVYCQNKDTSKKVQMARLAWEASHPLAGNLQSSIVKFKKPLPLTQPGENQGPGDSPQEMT
Vif A3G: inhibitors of Vif binding to APOBEC3G peptide, primary screen, biochemical, TR-FRET, GST-Vif 1-94, biotin-A3G peptide, dose response retest (AID 1117319); 0.57% of 260,000 active; TR-FRET GST-Vif / biotin-A3G peptide binding; higher % means a stronger effect; test concentration not given here; strong numbers were not always called active; inhibition, %; hits with a dose series show IC50 in µM;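 active means above the screen mean plus three standard deviations and confirmed in dose response; inconclusive means results disagree or hit not tested in dose response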;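 further: Vif residues 1-94 fused to GST binding biotinylated APOBEC3G peptide 110-148; 0% = full assay without inhibitor and 100% = GST in place of GST-Vif; retest series ran down from 100 µM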
RanGTP-Imp inh: inhibitors of RanGTP-importin-beta interaction, primary screen, biochemical, FRET, CFP-Ran, YFP-importin-beta, homogeneous; Ran GTPase (GTP-bound) - importin-beta complex; cell-free CFP-Ran/YFP-importin-beta FRET ratio; inhibition, % (test concentration not listed); 1.1% of 300,000 active; AID 2216, 2009;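 active means most replicates above 15%; inconclusive means exactly half above 15%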;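 further: 0% = DMSO wells and 100% = Ran loaded with GDP instead of GTP; wells of about 40 µL received 100 nL stock; the first replicate is given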
ALR inh: inhibitors of human ALR sulfhydryl oxidase, primary screen, biochemical, H2O2 detection, HRP-luminol luminescence, single point | AID 485317, 2010 | FAD-linked sulfhydryl oxidase ALR (Homo sapiens), P55789 | 3.8% of 290,000 active | purified ALR, DTT oxidation | inhibition, % (no concentration beside the values);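 active means mean and each replicate at 75% or more; inconclusive means only one of the two met; inactive means neither met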;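 further: stock transfer was 7.5 nL into about 7.5 µL; 0% = neutral wells and 100% = wells with inactivated enzyme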
Beta2AR agonist: beta2AR agonists driving receptor internalization, primary screen, cell-based, FAP fluorogen, flow cytometry; Beta-2 adrenergic receptor (Homo sapiens), P07550; Am2.2-beta2AR cells; reference of the scale not given here; response, % (no concentration beside the values); 0.43% of 340,000 active; AID 504454, 2011;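 active means response above a set limit, near 3 SD of response in nonfluorescent compounds, cut at about 42% in these data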;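 further: stock transfer was 100 nL into about 11 µL; a reference agonist was the positive control; negative values mostly stem from fluorescent compounds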
HNF4A DNA FP: change in binding of human HNF4A to DNA, primary screen, biochemical, fluorescence polarization, FITC-DNA | AID 1224865, 2016 | activity change, % at 10 µM | 0.3% of 360,000 active | 1 h | Hepatocyte nuclear factor 4-alpha (Homo sapiens), P41235; in the data active means activity change above about 30%, passing the limit was not always enough;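 further: controls were the assay level and a saturating level of protein; the project sought stronger binding though the title names inhibitors; some compounds called inactive have numbers as strong as hits; positive values seem to mean higher polarization but the record does not say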
* = called active by the depositor; u = inconclusive; x = no result given. The order is random; overall some 6.3% were active at least once.

Below each SMILES: Calb FLC	LANA-H2B inh	Vif A3G	RanGTP-Imp inh	ALR inh	Beta2AR agonist	HNF4A DNA FP
Cc1csc(SCC(=O)Nc2ccc(C)c(F)c2)n1
 : x	x	13%	x	x	-5	2.8
CCOC(=O)N1CCN(C(=O)c2ccc(C)c(S(=O)(=O)Nc3cccc(C)c3C)c2)CC1
 : 23	-0.3	23%	-2.4	3	-3	-1.7
COc1ccc(CNC(=O)C(C)NC(=O)c2cc3ccccc3o2)cc1 (centres undefined)
 : -12	x	-3%	-1.1	x	-2	-1.4
COc1ccc(C(CC(=O)O)c2ccc3c(c2)OCO3)cc1 (centres undefined)
 : 8	-1.1	-6%	0.6	-6	-1	0.7
COc1cc(C(=O)OCC(=O)NC23CC4CC(CC(C4)C2)C3)cc(OC)c1OC
 : x	x	-4%	x	x	1	1.1
O=C(C(Cc1ccccc1)n1cccc1)N1CCN(C2CCCCC2)CC1 (centres undefined)
 : -4	9.7	3%	1.1	-5	-14	0.9
CNC(=O)CSc1nnc(-c2ccccc2F)n1CCc1ccccc1
 : 0	13	5%	6.4	-6	1	3.2
Nc1ccn(CC(=O)NCCCc2ccccc2)c(=O)n1
 : x	-11	x	x	0	-11	-1.3
C[C@@H](c1ccccc1)N1C[C@H]2CCCN2c2cc(Br)ccc2S1(=O)=O
 : x	x	0%	x	x	3	1.2
COc1ccc(CCNC(=O)c2noc3c2CCCC3)cc1OC
 : -13	-10	19%	1.2	-5	7	-1.8
CC(=O)Nc1ccc(C(=O)CSc2nc3ccc(C)cc3[nH]2)cc1
 : -13	1.0	1%	2.6	98*	0	3.3
CCOC(=O)C1CCCN(C(=O)CCNS(=O)(=O)c2ccc(Br)cc2)C1 (centres undefined)
 : x	-0.2	1%	x	2	15	4.4
S=C1NC[C@H](Cc2ccccc2)N1CCc1cccc2ccccc12
 : -6	1.8	x	-0.8	-21	-3	-1.9
CCOc1ccc(N2CC(NC(=O)c3cccc4ccccc34)CC2=O)cc1 (centres undefined)
 : -5	-7.2	0%	-2.7	-1	-8	0.2
CCOC(=O)[C@@H]1[C@H]2COc3cc(OC)ccc3[C@H]2N2C(=O)N(c3ccc(C)cc3)C(=O)[C@@]12C
 : -2	5.3	x	-2.1	-6	-3	-4.0
Cc1ccc(CNC(=O)Cn2c(=O)n(-c3ccccc3)c(=O)c3sccc32)cc1
 : -1	-5.4	-17%	0.9	-2	-3	-2.2
CC(=O)OCC(=O)C12OC(C)(C)OC1CC1C3CC=C4CC(O)CCC4(C)C3CCC12C (centres undefined)
 : x	x	-2%	x	x	-2	4.6
O=C(CCCN1C(=O)c2ccccc2C1=O)NCc1ccco1
 : -15	-0.8	8%	6.6	-3	-5	2.7
COc1ccc(Br)c(C(=O)NC2CCCC2)c1
 : -11	2.1	x	0.3	-5	-5	-0.6
CC(NC(=O)CN1CCN(c2ncccn2)CC1)c1ccc(F)cc1 (centres undefined)
 : -7	1.7	4%	1.7	-3	-1	-0.2
Cc1nc(SCc2ccc(Cl)c(Cl)c2)ncc1C(=O)O
 : 90*	1.1	-10%	-0.3	97*	6	2.1
C=CC(=O)NC(NC(=O)C=C)c1ccc(Br)cc1
 : -15	-3.6	4%	u	-1	8	-4.2
CCCN(C1CCS(=O)(=O)C1)S(=O)(=O)c1ccc2ccccc2c1 (centres undefined)
 : x	-1.6	x	x	x	-19	-2.4
Cc1ccccc1NC(=O)Cn1nnc(-c2ccc(CN3CCC(C)CC3)cc2)n1
 : 6	0.3	x	-2.7	-8	-8	2.3
COc1cc(OCc2ccccc2)c(OC)c(OCc2ccccc2)c1
 : x	x	2%	x	x	-1	5.9
CS(=O)(=O)O/N=C1\CCCCC1c1ccc([N+](=O)[O-])cc1[N+](=O)[O-] (centres undefined)
 : -2	-4.3	7%	3.1	-19	22	-3.4
CC1(C)CC(=O)c2sc(NC(=O)C3COc4ccccc4O3)nc2C1 (centres undefined)
 : 2	4.8	-7%	-7.0	6	-10	0.8
O=C(OC1CCOC1=O)c1ccc2ncsc2c1 (centres undefined)
 : -7	-1.2	24%	0.3	-4	3	-4.3
COc1ccccc1/C=C/C1=NC(=C\C=C/c2ccccc2)/C(=O)O1
 : x	2.3	x	x	15	12	-5.8
COc1ccc(N(C)C(=O)c2sc(Cl)nc2C)cc1
 : 48	-2.2	x	0.2	-3	5	1.5
Cc1ccc(CN2CCNC(=O)C2CC(=O)NCc2cc(C)n(C)n2)cc1 (centres undefined)
 : -8	-9.3	x	0.3	2	4	-4.6
CCOC(=O)CC(=O)CSc1nc2c(sc(=S)n2-c2ccc(C)c(C)c2)c(=O)[nH]1
 : 18	-1.1	-2%	-5.1	x	25	2.7
CCOC(=O)N1CCC(=NNC(=O)c2ccc(O)cc2)CC1
 : 1	-2.4	x	2.7	-11	6	1.7
O=C(Nc1nnc(-c2cccs2)o1)c1ccc(S(=O)(=O)N2CCOCC2)cc1
 : 8	-0.4	27%	-4.0	53	2	0.5
COc1ccc(C2OC(=O)CC2C(=O)NC2CCCC(C)C2C)cc1OC (centres undefined)
 : -4	2.6	-1%	u	-17	10	-0.9
Cc1cc(C)n(CC(C)(O)c2ccccc2)n1 (centres undefined)
 : -2	-3.9	x	8.7	-9	0	-1.3
NC(=O)c1c(/N=C/c2cccnc2)sc2c1CCCC2
 : 31	-3.1	12%	4.0	-17	-7	-4.9
CCN(CC)c1ccc(O)c(C=Nc2ccc(C)c(C)c2)c1
 : -6	-2.0	8%	0.6	5	2	-2.1
O=C(NCCc1ccccc1Cl)C1CCC(=O)N(C2CCCCCC2)C1 (centres undefined)
 : -4	-3.0	x	4.2	12	0	-0.1
NC(=O)c1ccc(NC(=O)C2COc3ccccc3O2)cc1 (centres undefined)
 : 5	-4.6	x	-1.0	-4	3	-3.0
O=C(Nc1ccc2c(c1)N(S(=O)(=O)c1cccs1)CCC2)c1c(F)cccc1Cl
 : 14	-3.9	-5%	-0.9	x	5	-1.8
O=C(CN1C(=O)c2ccccc2S1(=O)=O)NC(Nc1ccccc1F)C(Cl)(Cl)Cl (centres undefined)
 : 10	2.5	-4%	2.8	-5	7	-1.8
CCc1ccccc1N(C(=O)c1ccco1)C(C(=O)NC1CCCC1)c1cccnc1 (centres undefined)
 : 6	-6.9	x	6.0	2	-2	-0.9
NC(=O)CC(NC(=O)Cc1cccc2ccccc12)c1ccc(N2CCCCCC2)c([N+](=O)[O-])c1 (centres undefined)
 : 10	-0.7	x	-4.2	-2	-7	-2.7
O=C(O)C1C2CCC(O2)C1C(=O)Nc1ccc(Cl)cc1F (centres undefined)
 : -1	-8.6	x	u	2	-2	2.4
O=C(CCn1ccc([N+](=O)[O-])n1)Nc1nccs1
 : -1	-5.0	5%	-0.9	-6	2	-1.5
O=C(/C=C/Nc1ccccc1)c1ccc(Oc2ncccn2)cc1
 : 1	2.2	2%	-0.7	-3	-4	-1.9
COc1cc(OC)c(NS(=O)(=O)c2c(C)[nH]c(=O)[nH]c2=O)cc1Cl
 : 6	3.5	-4%	-0.2	-16	-5	-1.2
CCCCN(C(=O)c1ccc2c(c1)NC(=O)CS2)c1ccccc1
 : x	-7.4	-6%	x	-20	1	0.2
COc1ccc(-c2cc(C(=O)N(C)CCc3ccc(OC)c(OC)c3)c3ccccc3n2)cc1
 : -2	4.7	x	2.6	-27	9	1.3
COc1ccc(S(=O)(=O)N2CCN(C(=O)c3cc(-c4ccc(Br)cc4)n[nH]3)CC2)cc1OC
 : 26	-3.2	x	-0.6	-5	7	0.3
CCCC(=O)NC(=S)Nc1ccc(C(C)=O)cc1
 : -4	3.1	21%	0.1	37	-2	-1.7
C=CC[C@H](CC(=O)N(CCO)Cc1ccccc1)C(=O)N[C@H](COC(=O)[C@H](CC=C)CC(=O)OC(C)(C)C)Cc1ccccc1
 : x	-3.3	x	x	-13	4	-1.2
CCOC(=O)n1c(=O)oc2cc(S(=O)(=O)N3CCCCC3)ccc21
 : -2	5.1	16%	3.2	56	7	-1.1
N#C/C(=C1/CCCN1)c1ccccn1
 : 3	0.6	4%	0.1	-3	5	2.6
CC1(C)CC(=O)C(C2C3=C(CC(C)(C)CC3=O)Oc3ccccc32)=C(O)C1 (centres undefined)
 : -17	2.0	11%	-1.0	3	15	-0.8
O=C(NCc1cccc(Cl)c1)c1cccc(S(=O)(=O)N2CCCC2)c1
 : x	-3.5	x	x	3	-2	-1.9
CC(=O)c1ccc(NC(=O)C2C3C=CC(C3=C(c3ccccc3)c3ccccc3)C2C(=O)O)cc1 (centres undefined)
 : 31	-0.8	1%	0.6	50	-9	-2.3
COc1ccccc1NS(=O)(=O)c1cc(C(=O)NCC2CCCO2)ccc1C (centres undefined)
 : 0	1.9	3%	0.8	-1	4	5.0
Cc1ccc(S(=O)(=O)N(Cc2ccccc2)C(C)C)cc1
 : 3	-2.2	-4%	3.2	-18	2	-1.1

Next section
Below each SMILES: Calb FLC	LANA-H2B inh	Vif A3G	RanGTP-Imp inh	ALR inh	Beta2AR agonist	HNF4A DNA FP
CCN(CC)S(=O)(=O)c1ccc(C)c(NC(=O)COc2ccc3c(C)cc(=O)oc3c2)c1
 : 33	3.4	1%	6.8	-4	-8	-2.1
COc1ccc(-n2cnnc2SCC(=O)N2CCN(c3ccccc3)CC2)cc1
 : -18	0.5	0%	4.7	26	-2	0.0
CCCC12CN3CC(C)(CN(C1)C3c1cccs1)C2=O (centres undefined)
 : -1	1.7	x	1.3	-1	2	-0.6
CCN(C(=O)COC(=O)/C=C/c1cccc([N+](=O)[O-])c1)c1ccccc1
 : 11	4.0	-1%	-2.7	4	2	-0.9
CCOC(=O)C1CCCN(S(=O)(=O)c2ccc(S(=O)(=O)N(CC)CC)cc2)C1 (centres undefined)
 : -28	0.5	x	-5.3	x	-1	1.3
Cc1ccc2oc(C(=O)N(C)CCC(O)c3ccccc3)c(C)c2c1 (centres undefined)
 : 5	-2.6	x	u	x	-2	6.3
O=C(COC(=O)COc1ccccc1F)NCc1ccco1
 : x	-4.8	1%	x	1	-2	0.3
COc1cc(NC(=S)N2CCN(S(=O)(=O)c3ccccc3)CC2)cc(OC)c1
 : 122*	0.4	x	x	-13	3	4.6
O=C(CNC(=O)C1CCCCC1)OCC(=O)c1ccc(F)cc1
 : x	4.9	-8%	x	2	6	-3.6
Cc1ccc(-c2nc(S(=O)(=O)c3ccc(C)cc3)c(SCC(=O)NCC3CCCO3)o2)cc1 (centres undefined)
 : 2	-0.5	x	-4.3	-22	-10	7.8
Cc1[nH][nH]c(=O)c1C(c1ccc(-c2ccc(Cl)c(C(=O)O)c2)o1)c1c(C)[nH][nH]c1=O
 : x	x	17%	x	x	-3	-12
O=C(Nc1cc(Cl)cc(Cl)c1)C(c1ccccc1)N1CCCCC1 (centres undefined)
 : -4	-1.9	x	u	-8	11	-2.1
Cc1ccc(CC(=O)O/N=C(\N)c2ccncc2)cc1
 : 0	6.0	2%	-2.0	-4	-5	2.1
CCN1C(=O)[C@H]2[C@@H](c3ccc(C)cc3)N3C(=O)N(c4cccc(Cl)c4)C(=O)[C@@]3(CC)[C@H]2C1=O
 : 25	-1.5	x	-0.3	4	-3	-7.2
CCOc1ccccc1NC(=O)c1ccc2c(c1)C(=O)N(CC1CCCO1)C2=O (centres undefined)
 : -7	-4.0	x	1.4	-4	3	-0.6
